High-throughput results as filed in PubChem.
BJeLR viability: compounds reducing viability of BJeLR cells | BJeLR fibroblasts viability, CellTiterGlo ATP luminescence, 48 h; HRASV12, hTERT and SV40 LT/ST transformed | 30,000 compounds, 0.64% hits | AID 2275 | viability loss activity score, % (test concentration not listed); in the data active means viability loss activity score above about 50%; inconclusive means no clear call, values can overlap the other calls; inactive means below about 35%; about a fifth of its hits are not listed in these tables;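 further: higher score means fewer live cells and less ATP luminescence; stock transfer was 50 or 100 nL into about 30 µL; 0% = vehicle wells and 100% = a reference killing control; one replicate is shown; the record names a cut of 85%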
A1 inh: A1 inhibition; MEF A1-2A-BIM cells, caspase-Glo luminescence, 3 h; percent of clofoctol signal, DMSO as zero; caspase activation, % (no concentration beside the values); 21,000 compounds, 0.51% hits; AID 2241;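 active means most replicate scores above 10, or exactly half above 10 with mean activity above 10; inconclusive means mean activity below 10 while half the replicates exceed 10; inactive means most replicate scores below 10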;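 further: effector caspase 3 and 7 activity cleaving a DEVD luciferin substrate; 50 nL library stock added to about 30 µL; numbers are from one replicate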
The depositor's hits bear a star; ? = inconclusive; nt = not tested or not shown. Not all compounds are listed (hit frequency here may not be typical).

SMILES	BJeLR viability	A1 inh
Cn1c(COc2ccc(C(C)(C)c3ccccc3)cc2)n[nH]c1=S	-8.7	0.4
C[C@H](CO)N1C[C@H](C)[C@H](CN(C)Cc2ccc(Oc3ccccc3)cc2)Oc2ccc(NC(=O)Nc3ccc4c(c3)OCO4)cc2C1=O	-2.6	0.2
CC(C)NC(=O)Nc1cccc2c1O[C@H](CN(C)Cc1ccccc1)[C@H](C)CN([C@H](C)CO)C2=O	4.0	nt
C[C@@H]1CN([C@@H](C)CO)C(=O)c2cc(NC(=O)Nc3ccc(C(F)(F)F)cc3)ccc2O[C@H]1CN(C)C	1.0	0.2
COC(=O)CN1C(=O)CSc2ncccc21	-2.2	0.9
C[C@H]1CN([C@@H](C)CO)C(=O)c2cc(NS(=O)(=O)c3cn(C)cn3)ccc2O[C@H]1CN(C)C	-1.1	-0.5
C[C@H]1CN([C@@H](C)CO)C(=O)c2cc(NC(=O)Cc3cn(C)c4ccccc34)ccc2O[C@H]1CN(C)Cc1ccc(Cl)c(Cl)c1	-2.3	-0.2
CSc1nc(N)nc(SCC(=O)Nc2ccccc2)c1C#N	5.5	-0.5
Cc1noc(C)c1S(=O)(=O)Nc1cccc2c1O[C@@H](CN(C)S(C)(=O)=O)[C@@H](C)CN([C@@H](C)CO)C2=O	5.3	nt
CC(=O)C(C#N)C(=O)Nc1ccc(OC(F)(F)F)cc1 (centres undefined)	20	-7.0
Cc1noc(C)c1S(=O)(=O)Nc1ccc2c(c1)C(=O)N([C@@H](C)CO)C[C@@H](C)[C@@H](CN(C)C(=O)Nc1ccc(C(F)(F)F)cc1)O2	3.1	0.3
Cc1cc(C(F)(F)F)nc2sc(C(=O)Nc3ccc(C(N)=O)cc3)c(N)c12	-5.7	-0.2
C[C@@H]1CN([C@@H](C)CO)C(=O)c2cccc(NS(=O)(=O)c3ccc(Cl)cc3)c2O[C@@H]1CN(C)Cc1ccncc1	4.3	nt
COC(=O)C1=C(C)NC(C)=C(C(=O)OC)C1C	-3.6	-0.1
CC(C)(CC(=O)O)CC(=O)N1CCN(c2ncccc2C#N)CC1	0.4	nt
Cc1noc(C)c1NC(=O)Nc1cccc2c1O[C@H](CN(C)S(=O)(=O)c1ccc(F)cc1)[C@@H](C)CN([C@@H](C)CO)C2=O	-1.9	nt
C[C@@H]1CN([C@H](C)CO)C(=O)c2cc(NC(=O)Nc3ccc4c(c3)OCO4)ccc2O[C@H]1CN(C)C	2.4	0.6
COc1ccc(CN(C)C[C@@H]2Oc3ccc(NC(=O)Cc4cn(C)c5ccccc45)cc3C(=O)N([C@H](C)CO)C[C@H]2C)cc1	-7.2	-0.8
CCOC(=O)c1c(/N=C/c2c(O)n(C)c3ccccc23)sc(C)c1C	3.9	0.0
C[C@H]1CN([C@@H](C)CO)C(=O)c2cc(NC(=O)NC3CCCCC3)ccc2O[C@@H]1CN(C)C(=O)Nc1ccccc1	2.8	0.0
COC(=O)NCCOc1nc(N(C)C)nc(N(C)C)n1	2.1	-0.1
CCCc1ccc(-c2c(C)sc(N)c2C#N)cc1	1.5	12*
C[C@H]1CN([C@@H](C)CO)C(=O)c2cc(N(C)C)ccc2O[C@@H]1CN(C)C(=O)Nc1ccc(F)cc1	-1.8	1.0
C[C@@H]1CN([C@@H](C)CO)C(=O)c2cccc(N(C)C)c2O[C@@H]1CN(C)S(=O)(=O)c1ccc(F)cc1	-1.5	nt
C[C@H]1CN([C@@H](C)CO)C(=O)c2cc(NC(=O)C3CC3)ccc2O[C@H]1CN(C)C(=O)NC1CCCCC1	-1.4	0.9

More entries.
SMILES	BJeLR viability	A1 inh
Cc1ccc(S(=O)(=O)Nc2ccc3c(c2)C(=O)N([C@@H](C)CO)C[C@H](C)[C@@H](CN(C)Cc2ccc(C(=O)O)cc2)O3)cc1	0.2	0.3
Cc1noc(C)c1S(=O)(=O)Nc1ccc2c(c1)C(=O)N([C@H](C)CO)C[C@@H](C)[C@@H](CN(C)S(=O)(=O)c1ccccc1)O2	5.6	1.1
C[C@@H]1CN([C@@H](C)CO)C(=O)c2cc(NC(=O)Cc3cn(C)c4ccccc34)ccc2O[C@@H]1CN(C)C	-0.1	0.2
Cc1ccc(S(=O)(=O)N(C)C[C@@H]2Oc3ccc(NC(=O)CCCCCC(=O)Nc4ccccc4N)cc3C(=O)N([C@H](C)CO)C[C@H]2C)cc1	3.6	nt
COc1ccc(CN(C)C[C@@H]2Oc3ccc(NS(=O)(=O)c4c(C)noc4C)cc3C(=O)N([C@H](C)CO)C[C@H]2C)cc1	2.3	0.1
COc1ccc(-c2c(C)nn3c(N4CCC(C)CC4)cc(C)nc23)cc1OC	1.5	1.0
O=C(/C=C/S(=O)(=O)c1ccc(Cl)cc1)c1ccc(F)cc1	?	-1.5
CNC[C@H]1Oc2ccc(NC(=O)Nc3c(C)noc3C)cc2C(=O)N([C@@H](C)CO)C[C@H]1C	1.4	0.3
Cc1csc(Nc2ccc(F)c(Cl)c2)[n+]1C(C)C	0.2	0.8
C[C@H](CO)N1C[C@H](C)[C@H](CN(C)C(=O)Nc2cccc3ccccc23)Oc2c(NS(=O)(=O)c3ccccc3)cccc2C1=O	0.1	nt
c1ccc(CNc2ncnc3nc[nH]c23)cc1	-2.7	0.2
COc1ccc(S(=O)(=O)N(C)C[C@H]2Oc3ccc(NS(=O)(=O)c4cn(C)cn4)cc3C(=O)N([C@H](C)CO)C[C@@H]2C)cc1	-2.6	-0.4
O=C(CCc1ccc(O)cc1)c1c(O)cc(O[C@@H]2O[C@H](CO)[C@@H](O)[C@H](O)[C@H]2O)cc1O	-6.1	0.1
COc1ccc(-c2n[nH]c(=S)n2-c2ccccc2)cc1OC	2.7	-0.1
CCOC(=O)c1[nH]c2ccccc2c1NC(=O)c1ccc(S(=O)(=O)N2CCCC2)cc1	-8.7	nt
CC(C)NC(=O)Nc1ccc2c(c1)C(=O)N([C@@H](C)CO)C[C@@H](C)[C@H](CN(C)Cc1ccncc1)O2	1.5	-0.1
Cc1ccc(-n2c(=O)c3ccc(C(=O)NCc4ccco4)cc3n(Cc3cccc(C)c3)c2=O)cc1	6.0	nt
C=CC[n+]1ccc2ccccc2c1	4.8	1.1
Cc1ccc(S(=O)(=O)Nc2ccc3c(c2)C(=O)N([C@@H](C)CO)C[C@H](C)[C@H](CN(C)Cc2ccc4c(c2)OCO4)O3)cc1	-3.6	0.0
CCC1C(=O)N=C(SCC(=O)Nc2ccc(Br)cn2)NC1=O (centres undefined)	4.1	-0.3
C[C@H]1CN([C@@H](C)CO)C(=O)c2cc(NC(=O)CCN3CCOCC3)ccc2O[C@@H]1CN(C)Cc1ccc(-c2ccccc2)cc1	-4.7	-0.6
C[C@@H]1CN([C@H](C)CO)C(=O)c2cccc(NC(=O)c3cnccn3)c2O[C@@H]1CN(C)Cc1ccc(Cl)c(Cl)c1	-9.6	nt
COc1cc(C(=O)O)cc(OC)c1O	5.9	0.2
COC(=O)Nc1ccc(N=Cc2cccs2)cc1	5.9	-0.5
COC(=O)c1ccc([C@H]2C(C#N)=C(N)C(C#N)(C#N)C3=CCC(C(C)(C)C)C[C@@H]32)cc1 (some centres undefined)	-3.0	0.4

An excerpt from above in order of heavy-atom count, falling.
SMILES	BJeLR viability	A1 inh
Cc1ccc(S(=O)(=O)N(C)C[C@@H]2Oc3ccc(NC(=O)CCCCCC(=O)Nc4ccccc4N)cc3C(=O)N([C@H](C)CO)C[C@H]2C)cc1	3.6	nt
C[C@H]1CN([C@@H](C)CO)C(=O)c2cc(NC(=O)CCN3CCOCC3)ccc2O[C@@H]1CN(C)Cc1ccc(-c2ccccc2)cc1	-4.7	-0.6
C[C@H](CO)N1C[C@H](C)[C@H](CN(C)C(=O)Nc2cccc3ccccc23)Oc2c(NS(=O)(=O)c3ccccc3)cccc2C1=O	0.1	nt
Cc1ccc(S(=O)(=O)Nc2ccc3c(c2)C(=O)N([C@@H](C)CO)C[C@H](C)[C@@H](CN(C)Cc2ccc(C(=O)O)cc2)O3)cc1	0.2	0.3
Cc1noc(C)c1S(=O)(=O)Nc1ccc2c(c1)C(=O)N([C@H](C)CO)C[C@@H](C)[C@@H](CN(C)S(=O)(=O)c1ccccc1)O2	5.6	1.1
C[C@@H]1CN([C@H](C)CO)C(=O)c2cccc(NC(=O)c3cnccn3)c2O[C@@H]1CN(C)Cc1ccc(Cl)c(Cl)c1	-9.6	nt
C[C@@H]1CN([C@@H](C)CO)C(=O)c2cc(NC(=O)Cc3cn(C)c4ccccc34)ccc2O[C@@H]1CN(C)C	-0.1	0.2
CC(C)NC(=O)Nc1ccc2c(c1)C(=O)N([C@@H](C)CO)C[C@@H](C)[C@H](CN(C)Cc1ccncc1)O2	1.5	-0.1
CNC[C@H]1Oc2ccc(NC(=O)Nc3c(C)noc3C)cc2C(=O)N([C@@H](C)CO)C[C@H]1C	1.4	0.3
COC(=O)c1ccc([C@H]2C(C#N)=C(N)C(C#N)(C#N)C3=CCC(C(C)(C)C)C[C@@H]32)cc1 (some centres undefined)	-3.0	0.4
COc1ccc(-c2c(C)nn3c(N4CCC(C)CC4)cc(C)nc23)cc1OC	1.5	1.0
CCC1C(=O)N=C(SCC(=O)Nc2ccc(Br)cn2)NC1=O (centres undefined)	4.1	-0.3
O=C(/C=C/S(=O)(=O)c1ccc(Cl)cc1)c1ccc(F)cc1	?	-1.5
COC(=O)Nc1ccc(N=Cc2cccs2)cc1	5.9	-0.5
c1ccc(CNc2ncnc3nc[nH]c23)cc1	-2.7	0.2
COc1cc(C(=O)O)cc(OC)c1O	5.9	0.2
C=CC[n+]1ccc2ccccc2c1	4.8	1.1

Other structures follow:
SMILES	BJeLR viability	A1 inh
CC(NCc1ccc(C(=O)O)s1)c1ccccc1 (centres undefined)	-1.6	-0.2
COc1ccc(NC(=O)N(C)C[C@@H]2Oc3c(NS(=O)(=O)c4ccccc4)cccc3C(=O)N([C@@H](C)CO)C[C@@H]2C)cc1	-3.1	nt
O=C(Nc1ccc(-c2cn3c(n2)SCC3)cc1)c1ccc2nonc2c1	8.0	1.1
C[C@@H]1CN([C@@H](C)CO)C(=O)c2cccc(NC(=O)c3ccncc3)c2O[C@H]1CN(C)CC1CC1	3.8	nt
C[C@H]1CN([C@@H](C)CO)C(=O)c2cc(NC(=O)CCC(F)(F)F)ccc2O[C@H]1CN(C)C(=O)Nc1ccc2c(c1)OCO2	-4.7	0.5
C[C@@H]1CN([C@@H](C)CO)C(=O)c2cc(NS(C)(=O)=O)ccc2O[C@@H]1CN(C)S(=O)(=O)c1ccc(Cl)cc1	-14	-0.2
C[C@@H]1CN([C@@H](C)CO)C(=O)c2cccc(NC(=O)c3nc4ccccc4s3)c2O[C@@H]1CN(C)C(=O)Nc1cccc2ccccc12	-7.7	nt
